NPR1 antag: blocks ANP-stimulated signaling of human Npr1 receptor | HEK293 hNpr1 GloSensor cGMP, ANP-stimulated luminescence | Potency, µM (highest dose often 46.3 µM), without a hit: top-dose activity change, negative = inhibition, hits mostly inhibitors | 1.6% of 76,000 active | AID 1347048; active = well fitted inhibition curve with a large enough effect; inconclusive = small, poorly fitted or top-dose-only effect; inactive = no such curve, though single readings can be large or run the other way;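 also: nearly all actives have a fitted effect of over 60% in size; nearly all hits also lower the signal before the agonist is added; a reference antagonist and vehicle were the controls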
Target sequence (P16066 whole entry, looked up): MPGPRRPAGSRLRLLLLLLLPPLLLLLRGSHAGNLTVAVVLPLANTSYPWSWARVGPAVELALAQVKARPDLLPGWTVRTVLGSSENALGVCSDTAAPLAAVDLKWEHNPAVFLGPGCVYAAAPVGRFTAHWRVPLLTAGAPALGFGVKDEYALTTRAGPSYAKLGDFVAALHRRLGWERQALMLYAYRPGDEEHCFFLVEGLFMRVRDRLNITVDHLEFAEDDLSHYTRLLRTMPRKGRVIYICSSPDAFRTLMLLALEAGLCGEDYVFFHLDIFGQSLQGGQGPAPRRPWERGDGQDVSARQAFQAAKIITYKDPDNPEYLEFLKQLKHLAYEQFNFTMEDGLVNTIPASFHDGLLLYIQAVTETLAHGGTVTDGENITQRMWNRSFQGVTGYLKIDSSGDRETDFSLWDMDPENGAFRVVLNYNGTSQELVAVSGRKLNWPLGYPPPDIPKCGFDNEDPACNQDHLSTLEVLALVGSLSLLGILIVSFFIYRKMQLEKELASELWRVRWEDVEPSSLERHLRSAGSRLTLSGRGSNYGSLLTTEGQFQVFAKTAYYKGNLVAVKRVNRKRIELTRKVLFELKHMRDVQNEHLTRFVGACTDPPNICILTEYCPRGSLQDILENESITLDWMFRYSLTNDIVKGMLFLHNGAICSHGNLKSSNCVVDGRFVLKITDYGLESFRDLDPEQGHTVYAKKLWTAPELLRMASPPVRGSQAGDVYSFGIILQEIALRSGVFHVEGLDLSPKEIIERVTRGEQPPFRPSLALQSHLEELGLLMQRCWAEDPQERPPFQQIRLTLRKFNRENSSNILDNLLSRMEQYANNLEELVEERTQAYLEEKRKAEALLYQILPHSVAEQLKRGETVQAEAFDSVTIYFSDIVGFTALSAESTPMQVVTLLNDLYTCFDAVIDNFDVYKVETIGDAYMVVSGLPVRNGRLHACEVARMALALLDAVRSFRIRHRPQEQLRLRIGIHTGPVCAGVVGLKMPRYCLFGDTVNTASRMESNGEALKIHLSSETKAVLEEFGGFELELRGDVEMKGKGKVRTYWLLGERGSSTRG
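HEK293 cells stably expressing human Npr1 and cGMP GloSensor pGS-40F, loaded 2 h with 2% GloSensor reagent, given compound 30 min at room temperature. Luminescence read before and 20 min after 0.1 nM hNppA.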
* = called active by the depositor; [ ] = dose if it differs, or a comment. % is scaled to controls: 0 for no effect and ±100 for the full control effect; potency is read from the fitted curve at half-maximal effect. An excerpt; rates above refer to the full screens.

How did CCc1noc(-c2cccn3c(CNC(=O)COc4ccc(F)cc4)nnc23)n1 do in these assays?
NPR1 antag: -6%

How did CCCN1CCCn2nc(CNC(=O)c3ccc(OC)nc3OC)cc2C1 do in these assays?
NPR1 antag: -3%

Results for COc1cccc(CC(=O)N2CCN(C(=O)c3nnn4c3COC(c3ccccc3)C4)CC2)c1 (stereo not drawn) ?
NPR1 antag: -14%

Results for O=C(Cc1ccc(C(F)(F)F)cc1)N1CCC2OCCN(Cc3ccccc3)C(=O)C2C1 (stereo not drawn) ?
NPR1 antag: -12%

Results for CCCCOCCCNC(=O)c1c(C)noc1-c1cc(OC)cc(OC)c1 ?
NPR1 antag: -3%

Results for CCC(=O)N1CCC2(CC1)OCC(C(=O)NCC1CCCO1)N2C(=O)c1cccc(OC)c1 (stereo not drawn) ?
NPR1 antag: 0%

Results for COCCNC(=O)[C@@H](C)C1CC[C@@]2(C)CC[C@H](NC(=O)c3cncnc3)[C@@H](C)[C@@H]2[C@H]1O (stereo partly drawn) ?
NPR1 antag: 0%[70.6 µM]

Results for CN(C)C(=O)c1cccnc1OC1CCNCC1 ?
NPR1 antag: -7%

How did CCc1cnc(N)nc1N(C)CCC(O)c1ccccc1 (stereo not drawn) do in these assays?
NPR1 antag: -4%

What do the screens show for `O=C1Nc2cnccc2C2(CCN(C(=O)OCc3ccccc3)C2)O1` (stereo not drawn)?
NPR1 antag: 12%

What do the screens show for `COC(=O)N1CCC2(C1)N=C(c1ccncc1)C(=O)N2` (stereo not drawn)?
NPR1 antag: 12%[70.6 µM]

What do the screens show for `COc1ccc(OCC(=O)N2CCC[C@H]2c2nc(-c3ccc(OC)cc3)no2)cc1`?
NPR1 antag: -27%

What do the screens show for `O=C(c1ccc(C(F)(F)F)cc1)N1CCOC[C@H](Oc2cccnc2)C1`?
NPR1 antag: 6%[70.6 µM]

What do the screens show for `Cc1cc(C)cc(C(=O)N2CCC[C@H]2c2nc(-c3ccccc3)no2)c1`?
NPR1 antag: -4%

Results for Cc1nnc(-c2cc(-c3ccccc3Oc3ccccc3)ccn2)n1C ?
NPR1 antag: 4%[70.6 µM]

What do the screens show for `COc1cccc(-c2nnnn2[C@H]2CO[C@H]3[C@@H]2OC[C@@H]3NC(=O)c2ccc(N(C)C)cc2)c1`?
NPR1 antag: 16µM*

What do the screens show for `N#Cc1cccc(CN2CC[C@H](c3nc4ccccc4[nH]3)C2)c1`?
NPR1 antag: -23%[70.6 µM]

How did COc1ccccc1-c1cnc2n[nH]c(-c3ccccc3C)c2n1 do in these assays?
NPR1 antag: -15%[70.6 µM]

How did CCOc1ccccc1NC(=O)CN1C(=O)NC(c2ccccc2OCC)C2=C1COC2=O (stereo not drawn) do in these assays?
NPR1 antag: -3%

Results for CCCN(CC1CCOC1)S(=O)(=O)c1ccccc1 (stereo not drawn) ?
NPR1 antag: 4%

What do the screens show for `COc1cccc2c1OCC(CNC(=O)CCc1cn3ccccc3n1)C2` (stereo not drawn)?
NPR1 antag: 3%

Results for CC(C)(C)c1cc(C[C@@H]2CC[C@H](O)[C@@H](CN(CC3CC3)CC3CC3)O2)no1 ?
NPR1 antag: inconclusive

Results for Cc1onc(-c2cnn(C)c2NCc2ccc(C#N)cc2)c1C(=O)Nc1ccccc1 ?
NPR1 antag: -5%[70.6 µM]

What do the screens show for `O=C([C@H]1C[C@H](Oc2ccccc2)CN1C(=O)c1ccccc1F)N1CCOCC1`?
NPR1 antag: 8%

Results for O=C(Cc1ccc(Cl)cc1)N1CCc2c(nc3cc[nH]n3c2=O)C1 ?
NPR1 antag: 2%

How did CCCn1ncc(CNC2CC(=O)N(Cc3ccccc3C(F)(F)F)C2)c1C (stereo not drawn) do in these assays?
NPR1 antag: 4%

Results for CNC(=O)[C@@H]1CN(C(=O)C2CC=CCC2)C[C@H]1c1nc(C)no1 (stereo partly drawn) ?
NPR1 antag: -9%

What do the screens show for `c1ccc(CCN2CCNc3cc(NCc4cccnc4)ncc3C2)cc1`?
NPR1 antag: 4%[70.6 µM]

Results for O=C(NCc1ccccc1)c1ccc(CN2C(=O)NC3(CCS(=O)(=O)CC3)C2=O)cc1 ?
NPR1 antag: -1%

What do the screens show for `O=C(c1ccncc1)N1CCC(Cc2nc(C3CCOCC3)no2)CC1`?
NPR1 antag: 11%

How did CN(CC1CCOCC1)C(=O)CC1CCCCC1 do in these assays?
NPR1 antag: 2%

Results for COCCCNC(=O)CCN(CC(C)C)C(=O)c1cc(C)oc1C ?
NPR1 antag: -1%

What do the screens show for `COc1ccc(-c2noc(C(=O)O)c2[C@@H](C)NC(=O)c2cccn2C)cc1`?
NPR1 antag: 0%[70.6 µM]

Results for Cc1ccc(C(=O)N2CCCC3(C2)NC(=O)N(Cc2cccc(Cl)c2)C3=O)cc1F (stereo not drawn) ?
NPR1 antag: -17%

How did O=C(CN1CCCc2nc(C3CC3)ncc2C1=O)NCCCN1CCCC1=O do in these assays?
NPR1 antag: -1%

How did Cc1nc(N2CCC(C(=O)NCc3ccc(C(C)C)cc3)CC2)cc(C(F)(F)F)n1 do in these assays?
NPR1 antag: inconclusive

How did CCc1ccc(C(=O)N2CCC3(CC2)OCC(C(=O)N2CCCC2)N3C(=O)c2cccc(C)c2)cc1 (stereo not drawn) do in these assays?
NPR1 antag: 0%

How did COC1CN(C2CCNCC2)C12CCOCC2 (stereo not drawn) do in these assays?
NPR1 antag: -7%

What do the screens show for `Cc1cc2nc(CO[C@H]3CN(C4CCOCC4)C[C@H]3F)[nH]c2cc1C`?
NPR1 antag: 5%[70.6 µM]

What do the screens show for `O=C(NCc1cccc(F)c1)N1CCC(n2cnnc2C2CC2)C1` (stereo not drawn)?
NPR1 antag: 2%

How did O=C(c1ccc2oc(-c3cccc(F)c3)nc2c1)N1CCCCC1CCO (stereo not drawn) do in these assays?
NPR1 antag: -21%

Results for Cc1ccn(CC(=O)NCc2cccnc2Oc2ccccc2)n1 ?
NPR1 antag: 6%

How did Cc1ccccc1-c1cn[nH]c1C1CCN(C(=O)CN2CCNC(=O)C2)CC1 do in these assays?
NPR1 antag: -16%

What do the screens show for `COC(=O)[C@@H]1Cc2ncn(Cc3ccccc3)c2CN1S(=O)(=O)c1cccs1`?
NPR1 antag: 3%[70.6 µM]

How did Cc1nn(C)c(C)c1C(=O)N1CCCn2ccnc2C1c1ccccc1 (stereo not drawn) do in these assays?
NPR1 antag: -1%

What do the screens show for `CN(CCO)C[C@@H]1CN(C(=O)Cc2c(F)cccc2Cl)C[C@@H]1CO`?
NPR1 antag: -24%

Results for CC1(CNc2ccccc2)COc2ccc(C(=O)NC3CCC(O)CC3)cc2N1 (stereo not drawn) ?
NPR1 antag: -7%[70.6 µM]

Results for Cn1cccc1C(=O)NCC1Cn2cccc2C(=O)N1Cc1ccccc1 (stereo not drawn) ?
NPR1 antag: 1%

How did CO[C@@H]1COCC[C@H]1NC(=O)COc1cccc(-n2cnnn2)c1 do in these assays?
NPR1 antag: 0%

How did O=C(CC1CCCCN(Cc2ccccc2)C1=O)N1CCc2ccccc2C1 (stereo not drawn) do in these assays?
NPR1 antag: -15%

How did COc1cccc(-c2ncc3c(n2)OCCN(c2ccccc2)C3=O)c1 do in these assays?
NPR1 antag: 8.9µM*

Results for Cc1nc(N2CCC(NC(=O)c3ccc(C)s3)CC2)cc(C(F)(F)F)n1 ?
NPR1 antag: inconclusive

How did COc1ccc(-c2nocc2CCC(=O)O)cc1 do in these assays?
NPR1 antag: -5%

How did CN(C)C(=O)[C@@H]1CN(Cc2c(F)cccc2Cl)C[C@H]1CO do in these assays?
NPR1 antag: -3%

What do the screens show for `Cc1cc(=O)n(CC(=O)Nc2ccc(Br)cc2F)c(N2CCC(C)CC2)n1`?
NPR1 antag: -9%

What do the screens show for `Cc1cccc(CC(=O)N2CCC(n3cc(-c4nc(-c5ccccc5)no4)nn3)CC2)c1`?
NPR1 antag: -3%

Results for COCC(=O)NC[C@H]1O[C@@H](CO)[C@@H](O)[C@H]1N(C)CCc1ccccn1 ?
NPR1 antag: -4%[70.6 µM]

How did COc1cc2c(cc1OC)C(CNC(=O)CC(C)C)N(C(=O)NC(C)C)CC2 (stereo not drawn) do in these assays?
NPR1 antag: 1%

How did CC1CCN(c2ccc(CNC(=O)C3CCCN(Cc4ccncc4)CCC(=O)NCC3)cc2)CC1 (stereo not drawn) do in these assays?
NPR1 antag: 1%

How did Cc1cnc(CC2CCN(C(=O)C3CC3)C2)n1C1CC1 (stereo not drawn) do in these assays?
NPR1 antag: 0%

Results for CC(C)N1C(=O)C2(CCCC2)C1C(=O)Nc1cccc(OC(F)(F)F)c1 (stereo not drawn) ?
NPR1 antag: 2%

What do the screens show for `O=C(C1CCC1)N1CCC2(CCN(Cc3ccccc3F)CC2)C(CO)C1` (stereo not drawn)?
NPR1 antag: -3%

How did O=C(NC[C@H]1Cn2c(-c3ccccc3)cnc2CO1)c1ccccc1 do in these assays?
NPR1 antag: -14%[70.6 µM]

Results for CC(C)(C)C(=O)Nc1nc2c(s1)C[C@@H]1[C@](C)(CO)[C@H](O)CC[C@@]1(C)[C@@H]2CC(=O)NCc1ccco1 ?
NPR1 antag: -17%

What do the screens show for `CC(C)(C)n1c(=O)[nH]c2cccnc21`?
NPR1 antag: 28%[70.6 µM]

How did CC(C)C(=O)N1CCC2(CC1)OC(=O)N(Cc1ncccn1)C2(C)c1ccccc1 (stereo not drawn) do in these assays?
NPR1 antag: 0%[70.6 µM]

How did CC(C)(C)CC(=O)N1CC[C@H]2CC(=O)N(c3ccccc3)CC[C@H]2C1 do in these assays?
NPR1 antag: 3%[70.6 µM]

How did Cc1nc2c(c(-c3ccc(O)cc3)n1)CN(C(=O)c1ccccc1C)CCC2 do in these assays?
NPR1 antag: 10%

What do the screens show for `Cc1cnc(N2CC[C@](C)(O)[C@@H](O)C2)nc1N(C)C`?
NPR1 antag: 7%

Results for Cc1ccc(C(=O)NCc2cccnc2Oc2ccccc2F)c(=O)n1C ?
NPR1 antag: 3%

How did CN(C)c1nc2c(c(=O)[nH]1)CCN(Cc1ccc(Cl)cc1F)CC2 do in these assays?
NPR1 antag: 0%

What do the screens show for `Cc1noc(CC2CCN(C(=O)c3cccc(-n4cnnc4)c3)CC2)n1`?
NPR1 antag: 0%

Results for CC(C)c1ccc(S(=O)(=O)N2CCC(Oc3ncccc3C(=O)N(C)C)C2)cc1 (stereo not drawn) ?
NPR1 antag: 2%

How did O=C(C1CCCC1)N1CCC2(CC1)CC(N(Cc1ccc(F)cc1)C1CC1)CCO2 (stereo not drawn) do in these assays?
NPR1 antag: -23%

Results for COc1ccccc1C(O)c1nc(Nc2ccncc2)n[nH]1 (stereo not drawn) ?
NPR1 antag: 1%[70.6 µM]

How did CN1CCC2(C1)CN(Cc1ccccc1)c1ccc(C(=O)N3CCOCC3)cc12 (stereo not drawn) do in these assays?
NPR1 antag: 1%[70.6 µM]

What do the screens show for `CN1CC(=O)N(C2CCC2)Cc2c(NCc3ccccc3)ncnc21`?
NPR1 antag: 3%

How did CC(C)n1nc(OC(C)(C)C(=O)NC2CC2)c2cc(CN3CCOCC3)ccc21 do in these assays?
NPR1 antag: 0%[70.6 µM]

How did O=c1cc(-c2cccnc2)nc(-c2ccc(CN3CC[C@@H](O)C3)cc2)[nH]1 do in these assays?
NPR1 antag: 3%

Results for Cn1c(=O)n([C@H]2CCCN(C(=O)Nc3ccc(F)cc3F)C2)c2ncccc21 ?
NPR1 antag: -18%

Results for O=C(c1cccnc1)N1CC(CO)C2(CCNCC2)C1 (stereo not drawn) ?
NPR1 antag: 3%

What do the screens show for `CC1=C[C@@H](CN(C)CCc2ccccn2)[C@H](C(C)C)C[C@H]1Cc1nnc(-c2ccccc2F)o1`?
NPR1 antag: -6%

How did CC(=O)N1CCN(C(=O)c2c(C)oc3c2CN(Cc2ccc(F)cc2)CC3)CC1 do in these assays?
NPR1 antag: -3%

What do the screens show for `c1ccc2c(c1)nc1n2[C@@H](CNCc2nccs2)COC1`?
NPR1 antag: -5%[70.6 µM]

Filtered by structure: the entries above with an NH in an aromatic ring (9)
What do the screens show for `N#Cc1cccc(CN2CC[C@H](c3nc4ccccc4[nH]3)C2)c1`?
NPR1 antag: -23%[70.6 µM]

How did COc1ccccc1-c1cnc2n[nH]c(-c3ccccc3C)c2n1 do in these assays?
NPR1 antag: -15%[70.6 µM]

Results for O=C(Cc1ccc(Cl)cc1)N1CCc2c(nc3cc[nH]n3c2=O)C1 ?
NPR1 antag: 2%

What do the screens show for `Cc1cc2nc(CO[C@H]3CN(C4CCOCC4)C[C@H]3F)[nH]c2cc1C`?
NPR1 antag: 5%[70.6 µM]

How did Cc1ccccc1-c1cn[nH]c1C1CCN(C(=O)CN2CCNC(=O)C2)CC1 do in these assays?
NPR1 antag: -16%

What do the screens show for `CC(C)(C)n1c(=O)[nH]c2cccnc21`?
NPR1 antag: 28%[70.6 µM]

How did CN(C)c1nc2c(c(=O)[nH]1)CCN(Cc1ccc(Cl)cc1F)CC2 do in these assays?
NPR1 antag: 0%

Results for COc1ccccc1C(O)c1nc(Nc2ccncc2)n[nH]1 (stereo not drawn) ?
NPR1 antag: 1%[70.6 µM]

How did O=c1cc(-c2cccnc2)nc(-c2ccc(CN3CC[C@@H](O)C3)cc2)[nH]1 do in these assays?
NPR1 antag: 3%

Compounds listed so far that contain a COOH group:
What do the screens show for `COc1ccc(-c2noc(C(=O)O)c2[C@@H](C)NC(=O)c2cccn2C)cc1`?
NPR1 antag: 0%[70.6 µM]

How did COc1ccc(-c2nocc2CCC(=O)O)cc1 do in these assays?
NPR1 antag: -5%

Assay outcomes: PubChem BioAssay, National Center for Advancing Translational Sciences (NCATS)
